Cruzain inh noDet: qHTS Assay for Promiscuous and Specific Inhibitors of Cruzain (without detergent); Cruzipain (Trypanosoma cruzi), P25779; Potency, µM, without a hit: max response, negative = inhibition, hits mostly inhibitors; purified cruzain, Z-FR-AMC fluorescence, no detergent; 200,000 compounds, 2.3% hits; active = well fitted curve in the direction sought with a large enough effect; inconclusive = small, poorly fitted or top-dose-only effect, or another doubt; inactive = no such curve, though single readings can be large; an effect the other way counts as inactive or inconclusive;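 also: plate controls were enzyme without inhibitor for no effect and buffer without enzyme for full effect; nearly all actives have a fitted effect of over 40% in size; top concentration of the series not given in the record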
Target sequence (P25779 123-467 limits assumed): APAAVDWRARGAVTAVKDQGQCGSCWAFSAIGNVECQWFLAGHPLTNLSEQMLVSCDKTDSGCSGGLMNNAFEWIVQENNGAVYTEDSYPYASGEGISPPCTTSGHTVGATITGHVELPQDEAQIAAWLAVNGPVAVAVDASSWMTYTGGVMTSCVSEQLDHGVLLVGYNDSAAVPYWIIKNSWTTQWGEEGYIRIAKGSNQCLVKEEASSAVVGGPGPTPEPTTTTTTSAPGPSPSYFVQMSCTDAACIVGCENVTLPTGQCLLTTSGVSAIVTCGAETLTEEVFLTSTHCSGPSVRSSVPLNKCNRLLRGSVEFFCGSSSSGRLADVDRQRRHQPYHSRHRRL
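Detergent-free condition (0.00005% Triton X-100) in acetate buffer pH 5.5 with DTT. 1.5 nM enzyme and compound were pre-mixed 15 min, then 2 uM Z-FR-AMC substrate added; reaction progress from fluorescence change between first and third reads (60 s).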
Cruzain Triton: qHTS Assay for Promiscuous and Specific Inhibitors of Cruzain (with detergent); Cruzipain (Trypanosoma cruzi), P25779; purified cruzain, Z-FR-AMC fluorescence, 0.01% Triton; Potency, µM, without a hit: max response, negative = inhibition, hits mostly inhibitors; 200,000 compounds, 0.43% hits; active = well fitted curve in the direction sought with a large enough effect; inconclusive = small, poorly fitted or top-dose-only effect, or another doubt; inactive = no such curve, though single readings can be large; an effect the other way counts as inactive or inconclusive;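 also: plate controls were neutral wells for no effect and buffer without enzyme for full effect; nearly all actives have a fitted effect of over 40% in size; top concentration of the series not given in the record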
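Cruzain (1.5 nM) preincubated 15 min at RT with compound in 100 mM sodium acetate pH 5.5, 5 mM DTT, 0.01% Triton X-100. Reaction started with 2 uM Z-FR-AMC; AMC fluorescence (ex 360/em 450 nm) change over 60 s gave rate.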
StopGo reporter: High Throughput Screening for Foot and Mouth Disease Virus Antivirals. human cells with a luciferase reporter of 2A StopGo recoding; control for the full effect not named in the record. Potency, µM (highest dose often 57.9 µM), inactives show at the top dose signal change, negative = less light. 410,000 compounds, 1.2% hits. AID 1159524, 2015; active = well fitted falling curve with a large enough effect; inconclusive = small, poorly fitted or top-dose-only effect; inactive = no such curve, though single readings can be large or run the other way; tested in HEK293T cells; also: % is scaled to controls: 0 for no effect and ±100 for the full control effect; nearly all actives have a fitted effect of over 45% in size; luciferase light after 4 h
RE007 growth inh: qHTS Assay for Inhibitors of the HIV-1 protein Vpr; 360,000 compounds, 0.21% hits; AID 651644, 2012; S. pombe RE007 Vpr strain, BacTiter-Glo ATP luminescence, 24 h; control for the full effect not named in the record; Potency, µM (doses to about 92.2 µM), without a hit: top-dose activity change, negative = less growth; active = well fitted falling curve with a large enough effect; inconclusive = small, poorly fitted or top-dose-only effect; inactive = no such curve, though single readings can be large or run the other way;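 also: % is scaled to controls: 0 for no effect and ±100 for the full control effect; nearly all actives have a fitted effect of over 50% in size; the assay follows cell death caused by Vpr and the record does not say whether a fall means rescue or toxicity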
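Fission yeast RE007 carrying one integrated HIV-1 vpr copy, seeded at OD 0.01 in PMG+AL medium with 23 nL pinned compound. Grown 24 h at 30 degrees; viability read by BacTiter-Glo luminescence after 5 min.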
Marburg entry inh: qHTS for inhibitors of binding or entry into cells for Marburg Virus; Marburg virus pseudotyped entry inhibition, cell reporter; control for the full effect not named in the record; about a third of the inactives were read at about 46 µM; 300,000 compounds, 1.8% hits; Potency, µM (series often up to 37.8 µM), for inactives: at the top dose activity change, negative = inhibition, usual class: inhibitors; AID 540276, 2011; active = well fitted inhibition curve with a large enough effect; inconclusive = small, poorly fitted or top-dose-only effect, or effect the other way; inactive = flat fitted curve, though single readings scatter; tested in HEK293 cells; about a fifth of its hits are not listed in these tables; also: % is scaled to controls: 0 for no effect and ±100 for the full control effect; luciferase read-out
NS1 function inh: qHTS Assay for Inhibitors of Influenza NS1 Protein Function | AID 2326, 2010 | S. cerevisiae slowed by influenza A NS1, growth recovery by OD600 | Potency, µM (doses to about 46.1 µM), without a hit: at the highest dose activity, positive = more growth | 270,000 compounds, 0.4% hits; also: actives are rising curves; nearly all actives have a fitted effect of over 50% in size
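S. cerevisiae expressing influenza A NS1, grown in glucose, washed, then diluted 1:100 into pH 6.0 -URA galactose medium with 23 nl compound. Growth recovery read as OD600; NS1-free strain serves as control.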
SARS PLP yeast: qHTS of Yeast-based Assay for SARS-CoV PLP; Potency, µM (doses to about 32.9 µM), for inactives: at the top dose activity, positive = growth rescue; AID 485353, 2010; 330,000 compounds, 0.19% hits; S. cerevisiae expressing SARS-CoV PLpro, growth rescue; control for the full effect not named in the record; also: 0% is about no effect; nearly all actives have a fitted effect of over 55% in size; growth read by luminescence after 48 h
LASV entry inh: qHTS for Inhibitors of binding or entry into cells for Lassa Virus. Potency, µM (series often up to 37.9 µM), without a hit: top-dose activity change, negative = inhibition, usual class: inhibitors. 300,000 compounds, 1.2% hits. Lassa virus pseudotype entry inhibition, cell reporter; control for the full effect not named in the record. AID 540256, 2011; active means well fitted inhibition curve with a large enough effect; inconclusive means small, poorly fitted or top-dose-only effect, or effect the other way; inactive means flat fitted curve, though single readings scatter; tested in HEK293 cells; also: % is scaled to controls: 0 for no effect and ±100 for the full control effect; nearly all actives have a fitted effect of over 50% in size; luciferase read-out
* marks the source's active call; other numbers are inactive results; ? = inconclusive; . = no result given; [ ] = another dose, or the depositor's remark. Unless noted, calls follow the shape of the dose curve; as a rule, active means well fitted rising curve with a large enough effect; inconclusive means small, poorly fitted or top-dose-only effect; inactive means no such curve, though single readings can be large or run the other way. Potency is read from the fitted curve at half-maximal effect.

SMILES | Cruzain inh noDet | Cruzain Triton | StopGo reporter | RE007 growth inh | Marburg entry inh | NS1 function inh | SARS PLP yeast | LASV entry inh
CCNc1cc(Nc2c(C)n(C)n(-c3ccccc3)c2=O)c([N+](=O)[O-])c2nonc12 | . | . | -11.1% | -5.9% | 22.6%[14.2 µM] | -0.7% | -0.5% | -13.4%
Cc1csc2ncnc(N3CCN(C(=S)Nc4ccc(C(F)(F)F)cc4)CC3)c12 | . | . | 10.1% | 4.8% | . | -1.9% | -3.7% | .
CC1(C)CC(=O)C=C(N2CCNCC2)C1 | -13.4% | -5.4% | 21.0% | 22.3% | 2.8% | 2.2% | 0.5% | 11.3%
CCOC(=O)c1cnc(C(C)(C)C)[nH]c1=O | -6.5% | -0.2% | -14.8% | -4.9% | -14.0%[46.1 µM] | 4.2% | -14.2% | 12.2%
Nc1c(-c2nc(-c3cccs3)no2)nnn1-c1cccc(Cl)c1 | 4.7% | 0.3% | 22.5% | . | . | . | . | ?
COc1cc(NC(=S)N2CCCC(C)C2)cc(OC)c1OC (stereo not drawn) | . | . | 23.8% | -0.9% | . | 3.5% | 0.8% | .
COc1ccc(S(=O)(=O)N(CC(=O)NCCSc2ccccc2)c2ccc(C)cc2)cc1 | -4.5% | -5.2% | -9.6% | . | -23.6%[46.1 µM] | . | . | -27.0%[46.1 µM]
CCCCn1c(=O)c(C(=O)Nc2ncccc2C)c(O)c2ccccc21 | . | . | -11.4% | ? | ? | -104.8% | -1.2% | -2.2%[46.1 µM]
CCOC(=O)c1ccccc1NC(=O)Cn1c(=O)n(Cc2nc(-c3ccccc3)no2)c(=O)c2ccccc21 | -9.4% | -3.4% | 0.0% | . | . | . | . | 28.9%[46.1 µM]
Cc1c(Cl)cccc1NC(=O)CNc1cccc(C(F)(F)F)c1 | -14.2% | -25.2% | 14.6% | -0.3% | -7.6% | -19.7% | -21.1% | 8.4%
Cn1nnnc1SCC(=O)Nc1ccccc1-c1ccccc1 | 7.9% | 9.2% | -4.7% | 1.4% | 0.8% | 3.7% | 2.2% | 2.4%
CCOc1cc(C#N)c(NC(=O)c2ccnn2C)cc1OCC | 8.5% | -1.3% | -16.6% | -6.6% | 5.7% | -4.5% | 25.9% | 0.4%
N#C/C(=C/c1ccc2c(c1)OCO2)C(=O)Nc1ccc(O)cc1 | . | . | 28.8% | -9.7% | -20.2%[46.1 µM] | 9.0% | -1.2% | -17.3%[46.1 µM]
CCc1cccc(C)c1NC(=O)COC(=O)C1CC(=O)N(CCc2ccc(OC)c(OC)c2)C1 (stereo not drawn) | . | . | -19.2% | -0.5% | 3.6% | . | -0.9% | 3.5%
CCOC(=O)C1CCCN(C(=O)c2cnn3c(C(F)F)cc(-c4ccc(C)cc4)nc23)C1 (stereo not drawn) | ? | -6.4% | ? | -16.1% | ? | -13.0% | -20.7% | ?
CC1=C(C(=O)Nc2ccccn2)C(c2ccc(Br)cc2)n2ncnc2N1 (stereo not drawn) | 0.0% | 2.0% | -10.3% | 0.1% | 3.7% | 17.5% | -4.1% | 0.5%
Cc1nn(-c2ccccc2)c(C)c1-c1nnc(-c2c(C)nn(-c3ccccc3)c2C)o1 | . | . | 31.6µM* | 13.2% | ? | 1.6% | 1.8% | ?
N#Cc1c2n(c3c(=O)[nH]cnc13)CCCC2 | 6.1% | 6.1% | 21.4% | -1.6% | -5.8% | 8.1% | 9.1% | 10.5%
Cc1ccc2nc(Cl)c(CN(Cc3cccs3)C(=O)C3CC3)cc2c1 | 2.3% | -4.3% | . | 4.9% | ? | -6.5% | 3.1% | ?
O=C(O)c1ccc2nc(C(F)(F)F)[nH]c2c1 | -8.8% | 8.4% | -3.3% | -6.7%[3.69 µM] | 0.2% | ? | 0.9% | -0.6%
CCOc1ccc(NC(=O)CN2CCN(C3CCCCC3)C(=O)C2=O)cc1 | -10.2% | -1.9% | 6.6% | . | . | . | . | ?
C/C=C/c1ccc(OCCn2nnc3ccccc32)c(OC)c1 | . | . | 18.6% | ? | . | -17.2% | -10.8% | .
COc1ccc(CNC(=O)c2cc3cccc(OC)c3oc2=O)cc1 | -1.8% | -1.0% | -8.7% | . | ? | . | . | 8.7%[46.1 µM]
C=CCNC(=O)/C(C#N)=C/c1cc(Br)ccc1OC | . | . | ? | 5.6% | ? | -37.6% | -2.4% | ?
Cc1cc(C)n(-c2nc3ccccc3c(=O)n2OCC#N)n1 | . | . | -15.5% | ? | 7.94µM* | -39.2% | 15.9% | ?
CCN(CC)c1ccc(/C=N/N2CCN(c3ccccc3OC)CC2)cc1 | . | . | 3.3% | -6.7% | . | 20.9% | -2.9% | .
O=C(CCC(=O)NC1CCCCC1)N/N=C/c1ccncc1 | . | . | -2.4% | 5.5% | 10.0% | . | -4.5% | -10.5%
COc1ccc(N(CC(=O)NC2CCS(=O)(=O)C2)S(=O)(=O)c2cc(C)ccc2C)cc1 (stereo not drawn) | . | . | 29.5% | 0.0% | ? | . | 1.5% | -10.6%
CCOC(=O)C(CC)Sc1nc2c(c(=O)[nH]c(=O)n2C)n1CCc1ccccc1 (stereo not drawn) | 6.8% | -10.9% | -18.9% | 13.2% | 1.2% | -11.8% | 5.5% | ?
CCNc1nc(ON=C(C)C)nc(N(C)C)n1 | 3.6% | 2.2% | -8.8% | 4.4% | 2.2% | -2.1% | -6.8% | -3.1%
CC1CCN(S(=O)(=O)c2ccc([N+](=O)[O-])cc2)CC1 | . | . | -16.1% | 5.1% | ? | -12.2% | 1.6% | -3.9%[46.1 µM]
CCOc1ccc(S(=O)(=O)N2CCC(C(=O)NCC3CCCO3)CC2)cc1 (stereo not drawn) | . | . | -14.2% | 11.6% | . | 4.3% | 17.3% | .
COc1ccc(-c2nc3ccccc3c(=O)n2O)cc1 | . | . | -12.1% | ? | . | -67.9% | -0.7% | .
COc1ccc2c(c1)C=C([C@@H]1C[C@H]3CN(c4ccccc4)C(=O)[C@]34CCCN14)CO2 | . | . | -10.6% | 14.9% | ? | -0.9% | -2.3% | 11.2%
O=S(=O)(c1ccc(Cl)s1)N1CCN(CCc2ccccc2)CC1 | . | . | ? | 22.1% | -33.4% | -15.8% | 0.9% | 21.5%
O=C(NNC(=O)c1ccccc1O)c1ccc(-c2ccc([N+](=O)[O-])cc2)o1 | . | . | -11.3% | -12.2% | -4.6%[46.1 µM] | . | 4.1% | ?
CCCCNC(=S)N1CCC(Cc2ccccc2)CC1 | . | . | 7.2% | -4.4% | 2.5%[46.1 µM] | -74.0% | -8.5% | 20.6%[46.1 µM]
Cc1ccc(C2CC2C(=O)NNC(=S)Nc2ccc(Cl)cc2)cc1 (stereo not drawn) | -6.4% | -13.3% | 9.7% | -0.5%[3.69 µM] | 7.9% | -37.0% | ? | ?
CC(=O)N1CCc2cc(S(=O)(=O)CCC(=O)Nc3cccc(F)c3)ccc21 | -12.6% | -2.6% | 0.0% | -6.3% | 3.2% | -5.7% | -14.5% | ?
CN(C(=O)CCc1nc(-c2ccccc2F)no1)c1ccccc1 | . | . | 0.0% | 4.0% | . | -5.1% | -5.1% | .
CCCn1c(SCC(=O)c2ccc3c(c2)OCCO3)nnc1C(C)C | 2.5% | -1.6% | 4.8% | -23.5% | -4.5% | -7.5% | 1.4% | 8.8%
CCOC(=O)CC(NC(=O)c1ccco1)c1ccccc1Cl (stereo not drawn) | -5.2% | 4.1% | 13.4% | 4.0% | -11.6% | 0.7% | 0.4% | ?
COc1cccc(N2C(=O)C3CCCN3C2=S)c1 (stereo not drawn) | . | . | -13.3% | 0.8% | 13.0%[46.1 µM] | 2.9% | 0.3% | -7.1%[46.1 µM]
NC(=O)C1CCN(C(=O)CNC(=O)c2ccc(F)cc2)CC1 | . | . | 1.6% | -17.1% | -3.0% | . | 0.5% | 16.3%
COc1cc(C2=NOC(C(=O)NCc3cccnc3)C2)cc(OC)c1OC (stereo not drawn) | . | . | 33.7% | 20.5% | ? | 2.2% | 4.4% | ?
COc1ccccc1NC(=O)CCC(=O)N(Cc1ccc(OC)c(OC)c1)c1nccs1 | . | . | -2.4% | 4.0% | 18.1%[46.1 µM] | -6.0% | 0.4% | .
O=[n+]1cc(-c2cc3ccccc3o2)n([O-])c2c1CCCC2 | -11.7% | -9.2% | 24.6% | ? | ? | -23.7% | -0.2% | -2.9%
O=C(CCSc1nnnn1-c1ccccc1)N1CCOCC1 | -6.2% | -0.8% | 48.8%[activator] | -17.7% | 20.5% | 0.9% | -0.3% | ?
Cc1cccc(C)c1NC(=O)CSc1ccc([N+](=O)[O-])cn1 | -1.6% | -7.1% | 0.0% | -8.4% | -0.1% | -8.3% | -19.2% | -5.9%
CCN(CC)c1ccc(N=Cc2c(O)n(-c3ccc(Cl)cc3)c(=O)[nH]c2=O)cc1 | 3.5% | -2.3% | -9.3% | -13.1% | -1.7%[46.1 µM] | 5.7% | 3.5% | -14.0%
(cont.)
SMILES | Cruzain inh noDet | Cruzain Triton | StopGo reporter | RE007 growth inh | Marburg entry inh | NS1 function inh | SARS PLP yeast | LASV entry inh
O=C(O)COc1ccc(NC(=O)c2cccs2)cc1 | . | . | -7.0% | -20.9% | -16.4% | . | . | 8.8%
Cc1ccc(NC(=O)/C(=C\c2ccco2)NC(=O)c2ccco2)cc1 | . | . | 12.5% | -6.7% | 9.6%[46.1 µM] | -5.5% | 0.0% | -2.1%
NC12CC3CC(C1)CC(CC(=O)O)(C3)C2 | . | . | -0.3% | 18.6% | -6.6%[46.1 µM] | . | 0.7% | 2.1%
Cc1cccc(Cn2c(SCc3ccc(C(=O)N4CCCCCC4)cc3)nc3ccncc32)c1 | 2.3% | -16.2% | -24.3% | . | -23.7%[46.1 µM] | . | . | ?
COc1ccc(C=C2SC(=O)NC2=O)cc1OC | . | . | 42.2%[activator] | -3.4% | -6.0%[46.1 µM] | . | . | ?
COc1cc2c(cc1NC(=O)COc1ccccc1OC)oc1ccccc12 | -21.0% | 9.1% | 1.7% | 2.3% | -25.4% | 0.9% | -2.3% | 1.3%

Screens (PubChem)

Rows are unselected. About 4.6% of those tested had a hit in this group.
